# Rango release inh: prevents RanGTP from dissociating the Rango-importin beta complex; Potency, µM (top dose mostly 46.1 µM), for the others: at the highest dose activity change, negative = inhibition; AID 540253; Biochemical FRET Rango-importin beta, RanGTP-induced dissociation; 0.071% of 340,000 active; O95149+P62826; active means falling FRET ratio curve, often poorly fitted, with flat reads before Ran was added; inconclusive means other falling curves, or compound fluorescence or quenching; inactive means flat or rising ratio curve;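 note: potency is the fitted concentration of half-maximal effect; % of control where 0% means no effect; nearly all actives have a fitted effect of over 45% in size; -100% = wells without RanGTP and RCC1; the record marks most hits as doubtful in a second field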
#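 Two FRET readings bracket the reaction: one 5 min after compound meets Rango–importin beta, another 45 min after RanGTP-RCC1 (0.6 uM Ran, 0.2 uM RCC1, 2 mM GTP) is added. Only the second defines inhibition.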
# GLA inh pH 4.5: blocks human alpha-galactosidase A at pH 4.5; 230,000 tested, under 10 active; activity change, negative = inhibition, % at 105 µM; P06280; purified enzyme, 4-MU-alpha-Gal fluorescence, pH 4.5; inconclusive = small, poorly fitted or top-dose-only inhibition, or a rising curve; inactive = flat fitted curve, though single readings scatter; no compound was filed as active;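 note: 0% = full activity with enzyme and -100% = basal without enzyme; dose as in the result columns while the protocol names 77 µM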
# Rango-impB inh: Rango-importin beta binding inhibition. Rango CFP/YFP FRET sensor + importin beta, 45 min. Potency, µM (highest dose often 92.2 µM), without a hit: at the top dose inhibition of complex formation. 0.031% of 340,000 active; active = rising FRET ratio curve, often small or poorly fitted; inconclusive = mostly compound fluorescence or quenching in the first reads; inactive = flat curves in all reads;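 note: potency is the fitted concentration of half-maximal effect; 0% = DMSO wells and 100% = buffer wells lacking importin beta; nearly all actives have a fitted effect of over 15% in size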
# Target sequence (Q14974 whole entry, looked up): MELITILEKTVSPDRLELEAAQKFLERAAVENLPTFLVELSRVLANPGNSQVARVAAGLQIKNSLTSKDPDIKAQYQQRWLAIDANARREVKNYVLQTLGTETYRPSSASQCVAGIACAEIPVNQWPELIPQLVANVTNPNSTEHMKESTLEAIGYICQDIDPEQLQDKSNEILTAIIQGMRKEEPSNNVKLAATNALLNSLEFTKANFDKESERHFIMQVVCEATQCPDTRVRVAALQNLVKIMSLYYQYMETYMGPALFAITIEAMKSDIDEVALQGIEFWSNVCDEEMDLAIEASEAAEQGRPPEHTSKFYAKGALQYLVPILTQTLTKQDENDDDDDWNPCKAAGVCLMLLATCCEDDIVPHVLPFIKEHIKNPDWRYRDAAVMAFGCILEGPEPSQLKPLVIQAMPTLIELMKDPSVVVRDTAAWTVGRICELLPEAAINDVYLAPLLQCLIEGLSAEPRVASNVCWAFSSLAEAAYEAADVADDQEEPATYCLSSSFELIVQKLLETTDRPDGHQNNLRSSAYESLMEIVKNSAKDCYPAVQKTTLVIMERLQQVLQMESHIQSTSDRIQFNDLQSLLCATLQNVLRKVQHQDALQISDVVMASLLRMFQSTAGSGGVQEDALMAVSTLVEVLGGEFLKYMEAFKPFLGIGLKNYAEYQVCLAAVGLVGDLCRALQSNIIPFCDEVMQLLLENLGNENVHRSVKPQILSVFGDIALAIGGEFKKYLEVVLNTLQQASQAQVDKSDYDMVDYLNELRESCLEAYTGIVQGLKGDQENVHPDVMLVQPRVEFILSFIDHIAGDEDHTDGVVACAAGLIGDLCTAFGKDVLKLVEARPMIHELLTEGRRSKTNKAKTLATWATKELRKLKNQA
#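 Inhibition scored from the CFP 486 nm/YFP 530 nm FRET ratio 45 min after adding 0.125 microM importin beta to 50 nM Rango biosensor preincubated 5 min with compound (room temperature, PBS with DTT, Tween-20, BSA). No-importin wells as positive control.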
# miR-21 reporter: raises the signal of a miR-21 reporter. HeLa miR-21 FLuc reporter, luciferase, 48 h. Potency, µM (top dose mostly 38.3 µM), for inactives: top-dose reporter change, positive = more light. 340,000 tested, under 10 active. AID 2288; active = well fitted rising curve with a large enough effect; inconclusive = small, poorly fitted or top-dose-only effect; inactive = no such curve, though single readings can be large or run the other way;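 note: % of control where 0% means no effect; miR-21 action dims this reporter so a rising signal means less miR-21 action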
#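 HeLa cells stably expressing CMV-driven firefly luciferase with a downstream miR-21 binding sequence, endogenously expressing miR-21, were treated with titrations (up to about 40uM final) for 48 hours at 37 degree Celsius. Luciferase luminescence was read after lysis.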
# Numbers without * were called inactive; ? = inconclusive; · = no result given; [ ] = dose if it differs, or a comment. This is a subset; rates above refer to the full screens.
SMILES,Rango release inh,GLA inh pH 4.5,Rango-impB inh,miR-21 reporter
COc1c(Br)cc([N+](=O)[O-])c(OC)c1C(=O)NC(=O)Nc1c(Cl)cccc1Cl,-2.2%,-3.2,-0.5%,2.8%
Cc1cccc(NC(=O)C2Cc3ccccc3O/C2=N\O)c1 (stereo unspecified),-3.6%,·,0.8%,-60.1%
CC(CC(=O)Nc1cccc(S(=O)(=O)N2CCCCC2)c1)c1ccccc1 (stereo unspecified),5.8%,·,1.3%,·
CN1c2ccccc2C(O)=C(C(=S)Nc2ccccc2)S1(=O)=O,-15.3%,-1.3,1.2%,-3.6%
Cc1cc(C)c2sc(NC(=O)CN3C(=O)CCC3=O)nc2c1,-14.3%,1.2,-4.0%,-4.3%
N=C(N)c1ccc(/C=C/c2ccc(C(=N)N)cc2O)cc1,1.9%,-7.0,?,1.6%
CC(=O)Nc1ccc(N(C(=O)CNC(=O)c2ccco2)C(C(=O)NCc2ccco2)c2ccccc2F)cc1 (stereo unspecified),-4.6%,8.1,3.2%,-0.9%
O=C(NC1CCCN(Cc2ccccc2F)C1)c1cccs1 (stereo unspecified),-15.4%,·,-0.7%,3.0%
COc1ccc(NC(=O)C2(S(=O)(=O)c3ccc(C)cc3)CC2)cc1,?,·,-4.8%,-4.5%
CN(c1ccccc1C(=O)NCC1CCCO1)S(C)(=O)=O (stereo unspecified),-7.2%,5.3,?,-3.3%
COc1ccc(C(=O)N/N=C/c2ccc(OC)c(COc3ccc(F)cc3)c2)cc1,-6.2%,·,3.9%,6.7%
CCCOc1ccc(C(=O)CCN2CCN(C(=O)OCC)CC2)cc1,7.5%,0.4,-1.6%,22.4%
COc1ccc(NC(=O)Cn2nnc(-c3ccccc3NC(=O)c3ccco3)n2)cc1,-7.7%,4.6,0.6%,21.6%
COc1cccc(CNc2cc(C)ccn2)c1O,8.6%,·,0.2%,-49.1%
Cc1cc(=O)oc2cc(NC(=O)c3c(Cl)cnn3C)ccc12,15.7%,·,-2.4%,-24.1%
Cc1cccc(NC(=S)Nc2ccc(N3CCOCC3)cc2)c1C,14.5%,6.0,-0.3%,-26.7%
CCOC(=O)c1c(NC(=O)C2CCN(S(=O)(=O)c3cccs3)CC2)sc(C)c1C,3.8%,-4.7,-1.0%,-2.3%
Cc1cc(/C=N/NC(=O)C(O)(c2ccccc2)c2ccccc2)c(C)n1-c1cccc(C(=O)O)c1,-10.7%,-5.6,?,-1.2%
COCCNC(=O)Nc1ccc2c(c1)N(C)C(=O)CS2,1.3%,-3.9,-4.0%,-1.2%
CC(=O)C[C@@H](O)CC(=O)[C@H]1OC(=O)CCCCCCc2ccccc21,0.1%,·,-0.3%,·
C#CCN1Cc2ccccc2Oc2cc(Br)ccc2S1(=O)=O,?,·,-2.4%,·
Cc1ccc(S(=O)(=O)N2[C@@H](c3ccc(C#N)cc3)C(C(=O)O)=C[C@H]2C(C)(C)C)cc1,4.4%,·,0.6%,·
CCOC(=O)NC(Nc1ccc(C)cn1)(C(F)(F)F)C(F)(F)F,-5.2%,11.7,-1.7%,-11.8%
CCc1ccccc1NC(=O)C(C#N)Cc1cccnc1 (stereo unspecified),3.3%,2.6,-1.9%,0.1%
CC(C)(C)[C@H]1COC(=O)[C@H](NC(=O)OCC2c3ccccc3-c3ccccc32)C/C=C\C[C@@H](CC(=O)N(CCO)Cc2ccccc2)C(=O)N1,1.8%,·,0.2%,·
CCOC(=O)N1CCN(S(=O)(=O)c2ccc3c(c2)oc(=O)n3C)CC1,-1.5%,9.3,-1.9%,1.3%
CC1(C)CCCC2=C1CC1C(=O)N(O)C(=O)C1C2 (stereo unspecified),0.1%,-2.4,0.7%,-10.5%
Cc1nn(-c2ccccn2)c2c1C(c1ccccn1)C1=C(CCCC1=O)N2 (stereo unspecified),·,12.1,·,3.7%
COc1ccc(C=NNC(=S)Nc2ccc(F)cc2)cc1OC,1.0%,·,?,·
COC(=O)c1c(C(=O)OC)c2cc(C(=O)c3ccccc3)ccn2c1Cl,?,4.2,?,-1.1%
CC(=O)c1cnn(-c2ccc(Cl)cc2)c1C,11.0%,0.5,-2.7%,-9.3%
Cn1c(CCN2CCN(c3ccccn3)CC2)nc2cc(NC(=O)COc3ccc([N+](=O)[O-])cc3)ccc21,6.5%,·,2.7%,5.9%
Cc1cc([N+](=O)[O-])ccc1NC(=O)/C=C/c1cccs1,-6.9%,-15.1,?,-50.5%
COc1ccccc1N1CCN(C(=O)Cn2c(=O)oc3cc(S(=O)(=O)N4CCCC4)ccc32)CC1,11.1%,·,-2.3%,7.2%
CCN(CC)S(=O)(=O)c1ccc(C(=O)NCC(=O)NCCCc2ccccc2)cc1,-2.0%,·,-2.3%,-0.9%
O=C(COC(=O)c1ccc2ncsc2c1)Nc1ccccc1Br,-12.2%,·,?,·
Cc1nn(Cc2ccccc2)c(C)c1NC(=O)CCCn1nc([N+](=O)[O-])cc1C,-28.9%,2.8,1.4%,-1.2%
CNCC(=O)Nc1ccc(OC(F)(F)F)cc1,4.1%,7.9[21.1 µM],2.1%,4.7%
O=S(=O)(c1cccc(Br)c1)N1CCN(c2ncnc3scc(-c4ccccc4)c23)CC1,18.9%,·,0.5%,·
CCc1ccc(-c2cc(C(=O)NN3CCOCC3)c3ccccc3n2)s1,-11.5%,11.6,2.4%,-23.8%
COc1ccccc1C(=O)Nc1ccc(C(=O)N2CCCC2)cc1,19.9%,2.9,-1.8%,-16.9%
COc1ccc(C(C(=O)NC2CCCC2)N(Cc2cccnc2)C(=O)c2snc(C(N)=O)c2N)cc1OC (stereo unspecified),6.4%,·,0.0%,-3.7%
CC(C)(C)C1CCC(=O)N(CCOc2ccccc2)CC1 (stereo unspecified),1.5%,·,3.9%,-44.9%
Cc1c(NC(=O)C(C)OC(=O)COc2cccc3c2OC(C)(C)C3)c(=O)n(-c2ccccc2)n1C (stereo unspecified),4.9%,5.7,2.0%,-4.7%
COc1ccc2c(=O)c3c(=O)n(Cc4ccco4)c(-c4ccccc4)nc3oc2c1,-1.3%,-5.4,1.3%,0.7%
Cc1onc(-c2ccccc2Cl)c1C(=O)NCC(=O)O,-5.0%,6.1,1.3%,-1.8%
O=C(COC(=O)/C=C/c1cccs1)Nc1ccc(F)cc1,-12.0%,·,-0.3%,·
CCCCCCCN(c1ccccc1)[C@@H]1C[C@H]2CCCC(=O)N3CC[C@@H](C1)[C@@H]23,?,·,-1.3%,·
Cc1cccc(C(=O)Nc2ccc(C)c(OC(=O)c3cccc(C)c3)c2)c1,·,-5.6,·,-40.0%
CCCCC(=O)Nc1cccc(NC(=O)c2ccc(Br)cc2)c1,1.7%,-3.7,-1.4%,-3.4%
CC(=O)c1cccc(S(=O)(=O)N2CCC(C(=O)N(C)Cc3ccc(Cl)s3)CC2)c1,-8.6%,·,1.1%,·
CN(C)/C=C(\C#N)C(N)=C(C#N)C#N,?,6.8,?,-3.8%
O=C(CSc1nnc(-c2ccccc2F)n1C1CCCCC1)N1CCCC1,-17.1%,3.1,12.7%,0.0%
O=C(COC(=O)/C=C/c1ccccc1F)Nc1nnc(-c2ccccc2)o1,1.2%,·,-4.6%,·
COc1c(O)cccc1-c1nnn(CCC(=O)OCC(=O)c2ccccc2)n1,-2.0%,-24.2,2.5%,0.7%
O=C(CCCOc1ccccc1)Nc1cccc(C(=O)O)c1,1.2%,0.6,0.2%,-11.2%
Cc1cc(C(=O)N/N=C/C=C/c2ccc3c(c2)OCO3)n[nH]1,-8.7%,2.5,-7.9%,-25.9%
CC(=O)NCCCNS(=O)(=O)c1ccc(C)cc1,11.8%,2.0,5.8%,4.0%
O=C(COC(=O)/C=C/c1cccs1)Nc1nc(-c2cccc(Br)c2)cs1,3.6%,3.5,4.6%,-34.2%
C#CCOCCOCCOCCNc1nc(N2CCOCC2)nc(N2CCN(C(=O)CCCCCCCCCCNC(=O)[C@@H]([C@H](C)O)n3cc(C)nn3)CC2)n1,20.6%,·,-3.1%,·

# Other results:
SMILES,Rango release inh,GLA inh pH 4.5,Rango-impB inh,miR-21 reporter
Cc1ccc(S(=O)(=O)Oc2ccc(/C=C3/N=C(c4ccccc4)OC3=O)cc2)cc1,-17.2%,-8.8,-0.8%,-0.1%
COc1ccccc1-n1nnnc1SCC(=O)Nc1ccc(C)c(N)c1,0.1%,·,0.7%,3.9%
Cc1ccc(C(C)C)c(OCC(O)CN2CCOCC2)c1 (stereo unspecified),13.0%,-4.2,2.8%,-11.0%
CCOC(=O)C1(CC2CC2)CCN(S(=O)(=O)/C=C/c2ccccc2)CC1,-0.6%,0.4,-4.5%,4.5%
Cc1nn2c(N3CCN(C)CC3)cc(C(C)(C)C)nc2c1-c1ccccc1,-8.4%,-16.7,-0.3%,-7.4%
COc1ccc(C2C(=O)N(C3CCCCC3)CC(=O)N2Cc2ccco2)cc1 (stereo unspecified),-2.3%,-0.9,4.5%,-4.1%
Cc1ccc(CNC(=O)CS(=O)(=O)Cc2nc(-c3ccccc3F)oc2C)cc1,-8.7%,·,-1.9%,1.6%
O=C(Nc1ccc(F)cc1)C1C2CCC3C(CCC21)C3(Cl)Cl (stereo unspecified),-6.9%,0.5,4.0%,1.5%
CCc1nnc(NC(=O)COc2ccc3c(c2)OCO3)s1,-4.1%,·,1.5%,-25.8%
O=C(NNC(=O)c1ccc([N+](=O)[O-])cc1)c1ccc(Br)cc1,-1.5%,·,2.3%,-0.3%
CC(=O)N1N=C(c2ccc(Cl)cc2)CC1c1ccco1 (stereo unspecified),-13.1%,-2.5,-0.3%,-31.5%
Cc1ccc(-c2nc3cnccn3c2Nc2ccc3c(c2)OCO3)o1,?,?,?,-23.9%
CC[C@@H](C)[C@H](NC(=O)Cc1c(C)c2cc3c(C)coc3c(C)c2oc1=O)C(=O)O,-25.7%,·,-1.6%,-0.5%
O=c1c2ccccc2nc2n1CC/C2=C/N1CCN(c2cccc(C(F)(F)F)c2)CC1,-5.6%,-6.8,-0.3%,-9.3%
C=CCNC(=O)NS(=O)(=O)c1ccc(C)cc1,-7.7%,5.7,2.0%,-4.5%
CCc1ccccc1NC(=O)COc1ccc2c(c1)OCO2,3.2%,-0.8,0.8%,-37.6%
Cc1cc(C)n(C(=O)c2ccc(C)c(S(=O)(=O)N3CCCCC3)c2)n1,0.7%,4.9,-4.4%,-3.6%
Cc1cc2oc(=O)cc(Cn3ncc(Cl)c(Cl)c3=O)c2cc1Cl,6.0%,-2.3,1.1%,-0.6%
COc1ccc2nc(N/C(N)=N/C(=S)Nc3ccccc3)nc(C)c2c1,-1.1%,0.7,-3.9%,-16.5%
CCc1ccc(C(C)NC(=O)c2ccc3c(c2)OCO3)cc1 (stereo unspecified),0.4%,·,4.6%,-6.5%
CC(C)(C)OC(=O)N1CCC(NC(=O)c2nc[nH]c2C(=O)N2CCN(c3ccccc3)CC2)CC1,-11.5%,·,2.7%,·
O=C(Nn1c(C2CCCCC2)nc2ccccc2c1=O)c1ccc(Cl)c([N+](=O)[O-])c1,25.3%,-22.1,0.9%,4.7%
O=C(Nc1ccc(C(F)(F)F)cc1Cl)c1ccc(Cn2cc(Br)cn2)o1,0.8%,-4.7,0.5%,-5.1%
O=C(c1ccccc1)c1ccc(C(=O)N2CCN(c3ccccc3Cl)CC2)cc1,11.0%,·,?,·
CC(C)NC(=O)c1cc(-c2ccc(Br)cc2)on1,0.3%,-1.9,1.3%,-49.1%
Cc1ccc(Nc2cc(-n3nc(C)cc3C)ncn2)c(C)c1,0.1%,-1.4,-0.2%,-12.1%
COc1ccc(OC)c(NC(=O)c2cccc(N3C(=O)C4C5C=CC(C6CC56)C4C3=O)c2)c1 (stereo unspecified),13.8%,·,-0.2%,11.1%
CCN(CC)C(=O)c1csc(Nc2cccc3ccccc23)n1,?,·,-1.9%,-0.4%
CCOC(=O)c1ccc(N2C(=O)C(CC(=O)NC)N(CCc3ccc(OC)c(OC)c3)C2=S)cc1 (stereo unspecified),9.4%,·,-2.8%,17.7%

# 2 of the compounds above, as tab-separated lines:
Molecule	Rango release inh	GLA inh pH 4.5	Rango-impB inh	miR-21 reporter
CCN(CC)C(=O)c1csc(Nc2cccc3ccccc23)n1	?	·	-1.9%	-0.4%
CCOC(=O)c1ccc(N2C(=O)C(CC(=O)NC)N(CCc3ccc(OC)c(OC)c3)C2=S)cc1 (stereo unspecified)	9.4%	·	-2.8%	17.7%
